High-throughput results deposited in PubChem BioAssay by National Center for Advancing Translational Sciences (NCATS).
StopGo FLuc: FMDV 2A StopGo reporter, firefly signal. AID 1745856. Potency, µM (top dose mostly 57.5 µM), for the others: at the highest dose signal change, negative = less light. HEK cells with a luciferase reporter of 2A StopGo recoding. 0.23% of 120,000 active; active = well fitted falling curve with a large enough effect; inconclusive = small, poorly fitted or top-dose-only effect; inactive = no such curve, though single readings can be large or run the other way; note: nearly all actives have a fitted effect of over 60% in size; overnight with compound
StopGo RLuc: FMDV 2A StopGo reporter, Renilla signal; HEK cells with a luciferase reporter of 2A StopGo recoding; Potency, µM (titrated, usually from 57.5 µM), without a hit: top-dose signal change, negative = less light; 0.32% of 120,000 active; AID 1745857; active means well fitted falling curve with a large enough effect; inconclusive means small, poorly fitted or top-dose-only effect; inactive means no such curve, though single readings can be large or run the other way; note: nearly all actives have a fitted effect of over 55% in size; overnight with compound
* marks the source's active call; other numbers are inactive results; u = inconclusive; & = joins results of further samples; [ ] = remark or other dose. % is set by controls: 0 for no effect and ±100 for the full control effect; potency is the fitted concentration of half-maximal effect. The list is partial; rates above refer to the full screens.

structure | StopGo FLuc | StopGo RLuc
Cc1ccc(Cn2c(C)c(CNC3CCCCC3)c(C(=O)O)c2C)cc1 | -22% | -12%
C=C(C)Cn1c(-n2nc(C)cc2C)nc2c1c(=O)n(C)c(=O)n2C | -6% | 10%
COc1ccc(N2CCN(C(=O)CSc3c4c(nc5ccc(Cl)cc35)CCCC4)CC2)cc1 | 1% | -7%
O=C(Nc1cc(Cl)cc(Cl)c1)c1ccc(F)c(S(=O)(=O)NC2CCCC2)c1 | -25% | 37%[activator]
CC(C)(C)OC(=O)N1CCC(c2c(C(=O)Nc3ccc4c(c3)OCCO4)cnn2-c2ccc(F)cc2F)CC1 | -14% | -3%
Cc1cccc(CSCc2ccc(C(=O)NCCc3ccccc3)o2)c1 | 3% | -13%
CC1CCN(C(=O)CCc2nnc3ccc(NCc4ccc5c(c4)OCO5)nn23)CC1 | -1% | -29%
CC(C)(C)CC(=O)NCC(=O)O | 0% | 7%
CCOc1ccc(CNC(=O)C2Cc3ccccc3N2C(=O)CC)cc1OC (centres undefined) | -11% | -12%
CCc1cnc2c(c1SCC(=O)Nc1ccc(C)cc1C)c(=O)n(C)c(=O)n2C | -16% | -10%
CCc1ccc(NC(=O)CCCc2nc(-c3ccco3)no2)cc1 | 2% | 443%[activator]
CCCCn1c(=O)n(CC(=O)Nc2cccc(Cl)c2)c(=O)c2c1ncn2CCC(C)C | -6% | 4%
COC(=O)c1ccc(NC(=O)CCn2cccn2)cc1 | 37%[activator] | 8%
CN(C(=O)COC(=O)Cc1n[nH]c(=O)c2ccccc12)C1(C#N)CCCCC1 | 21% | 10%
O=C(CCc1ccsc1)NC1CCN(Cc2cccc(C(F)(F)F)c2)CC1 | -18% | u
CN(Cc1ccc(C(=O)NCC(F)(F)F)cc1)C(=O)c1cc(C2CC2)nc2ccccc12 | -10% | 20%
Cc1ccsc1CN(C(=O)c1oc2ccc(Br)cc2c1C)C1CCS(=O)(=O)C1 (centres undefined) | 21% | 5%
COc1ccc(S(=O)(=O)Nc2nc3ccccc3nc2Nc2ccc(C(=O)O)cc2)cc1 | -2% | -4%
Cc1cc2nc(-c3ccc(Cl)cc3)cc(C(F)(F)F)n2n1 | 4% | 1%
COc1ccc2nc(/N=C(\N)NC(=O)C(C)(C)C)nc(C)c2c1 | 80%[activator] | -7%
O=C(COc1ccccc1Cl)c1ccc(Br)cc1 | 102%[activator] | 0%
O=C(NCC1OCCc2ccccc21)c1ccc(Cl)cc1 (centres undefined) | 146%[activator] | 12%
O=C(NC1CCCC1)C1CCCN(C(=O)c2ccc3cc[nH]c3c2)C1 (centres undefined) | 1% | 6%
CC(=O)Nc1ccc(S(=O)(=O)Nc2nc3ccccc3nc2Nc2cccc(Cl)c2)cc1 | 31%[activator] | 13%
N#C/C(=C\c1ccc([N+](=O)[O-])o1)C(=O)NC1CCCCC1 | 0% | -5%
CCCCN(C)CCNC(=O)c1ccc(Cn2c(=O)[nH]c3cc(OC)c(OC)cc3c2=O)cc1 | -2% | -11%
COc1ccc(Cc2nnc(SC(C)c3nc4ccccc4c(=O)[nH]3)n2N)cc1 (centres undefined) | 5% | 4%
O=S(=O)(Nc1ccc(F)cc1F)c1ccc(-n2cccn2)cc1 | 17% | 222%[activator]
Cc1ccc(CNC(=O)c2ccc3c(c2)N(Cc2ccccc2Cl)C(=O)CS3)cc1 | -3% | 4%
Cc1cc(NC(=O)c2nn(C)c(=O)c3ccccc23)ccc1Br | 43%[activator] | -4%
CCCc1cc(NCCN(C)C)n2nc(C)c(-c3ccccc3)c2n1 | -5% | -10%
C=CCSc1nnc(NC(=O)c2cc(=O)c3cc(CC)ccc3o2)s1 | 1% | -1%
O=C(CSc1nc2cc3ccccc3cc2[nH]1)Nc1cccc(C(F)(F)F)c1 | 67%[activator] | -15%
CCn1c(N2CCC(C(=O)Nc3ccc(C(C)C)cc3)CC2)cc(=O)n(C)c1=O | -1% | 1%
CCNc1c(NC(=O)Nc2cccc(Cl)c2C)c(=O)oc2ccccc12 | 5% | -5%
Cc1cccc(-n2c(/C=C/c3c[nH]c4ccccc34)nc3ccccc3c2=O)c1 | -10% | -8%
CSc1nnnn1-c1cccc(NC(=O)c2ccccc2Br)c1 | 0% | 49%[activator]
CCOC(=O)c1ccc(N=C2SC(C(=O)Nc3ccccc3)CC(=O)N2C)cc1 (centres undefined) | -5% | -4%
CC(=O)OCC#CCSc1nnc(-c2cccc(Br)c2)o1 | 27% | -8%
O=C1CC(c2ccc(C(F)(F)F)cc2)c2c(c3ccccc3oc2=O)O1 (centres undefined) | -17% | -14%
O=C(CCCC(=O)N1CCC(c2noc3ccc(F)cc23)CC1)N1CCSCC1 | -25% | -15%
Cc1ccc(C)c(CSc2nnc3[nH]c(=O)cc(-c4ccccc4)n23)c1 | 11%&-18% | 5%&-6%
COC(=O)CSc1cc(C(C)(C)C)c(O)c(C(C)(C)C)c1 | -1% | 7%
CC1CCN(C(=O)CN2CCSc3ccc(S(=O)(=O)N(C)C)cc32)CC1 | -14% | 3%
CCC(=O)Nc1c(S(=O)(=O)c2ccc(OC)cc2)c(C)c(C)n1C(C)C | -1% | 19%
COc1cc(/C=C(\C#N)C(=O)Nc2ccccc2C(=O)O)cc(Cl)c1OC(C)C | 15% | -2%
CC(=O)N1CCN(C(C(=O)O)c2cn(CCC(=O)O)c3cc(Br)ccc23)CC1 (centres undefined) | -4% | -6%
O=C(O)c1cccc(Nc2nc3ccccc3nc2NS(=O)(=O)c2ccccc2)c1 | -10% | -5%
CC1=C(c2ccccc2)[N+](=O)C(C)(c2ccc(Cl)cc2)N1[O-] (centres undefined) | 10% | -4%
COC(=O)c1cc(-c2cccc(Cl)c2)nc2onc(C)c12 | -1% | -6%

Remaining list, next part:
structure | StopGo FLuc | StopGo RLuc
CCCCCn1c(=O)[nH]c2cc(C(=O)N3CCN(c4ccc(OC)cc4)CC3)ccc2c1=O | -2% | -3%
Cc1cc(C)n(Cc2c(C(=O)NCCc3ccccc3)noc2C)n1 | 11% | 3%
COc1ccc(CNC(=O)c2ccc(Cn3c(=O)c4cccn4c4cccnc43)cc2)cc1OC | -13% | 11%
CN(C)C1(CNC(=O)c2n[nH]c(=O)c3ccccc23)CCCCCC1 | -3% | -3%
COC(=O)c1ccc(Oc2c(C)oc3cc(OC(=O)c4ccc(F)cc4)ccc3c2=O)cc1 | 2% | -2%
COc1ccccc1-n1c(SCC(=O)N2CCCc3ccccc32)nc2c(c1=O)SCC2 | 24% | 0%
COc1ccc(C(=O)NCC2(N3CCN(C)CC3)CCCCC2)cc1 | -25% | -16%
CS(=O)(=O)Oc1ccc2c(c1)O/C(=C\c1ccncc1)C2=O | 7% | -2%
Cc1cccc(CC2C(=O)Nc3ccccc32)c1 (centres undefined) | -15% | u
CCOc1ccc(CCNC(=O)c2cc3c(=O)oc4ccc(C)cc4c3s2)cc1OCC | 332%[activator] | -3%
COC(=O)c1ccc(CNC(=O)C(C)Cl)cc1 (centres undefined) | -3% | 3%
Cc1ccc(C(=O)CC2(O)C(=O)N(CCc3ccccc3)c3ccc(Cl)cc32)cc1 (centres undefined) | -17% | 40%[activator]
Cc1ccc(-n2c3c(c(=O)[nH]c2=O)C(NC(=O)C(C)(C)C)(C(F)(F)F)C(=O)N3)cc1 (centres undefined) | -8% | -8%
CCOc1ccccc1NC(=O)CCc1nc(-c2ccc(C)n(CC)c2=O)no1 | 3% | -10%
CCOC(=O)c1ccc(Nc2nc3ccc(C(=O)c4ccccc4)cc3n3c(C)nnc23)cc1 | -11% | -22%
CCCOc1ccccc1NC(=O)Cc1c[nH]c2ccccc12 | -1% | 33%[activator]
COC(=O)c1ccc2c(=O)n(CCCCCC(=O)N3CCN(c4cccc(C)c4C)CC3)c(=O)[nH]c2c1 | 18% | 29%
CCC(=O)N1CCc2cc(S(=O)(=O)CCC(=O)NCc3ccccc3Cl)ccc21 | 9% | 9%
COc1cc(OC)c(NC(=O)N(C)CCc2noc(C(=O)NCc3ccccc3)n2)cc1Cl | 13% | 3%
COC(=O)c1ccc(NC2c3ccccc3C(=O)N2c2cccnc2)cc1 (centres undefined) | 14% | 27%
CN(CC(=O)Nc1ccccc1Br)C(=O)CNC(=O)c1ccc2c(c1)OCO2 | 16% | 6%
O=C(C1=C(c2ccccc2)S(=O)(=O)CCO1)N(Cc1ccccc1)c1ccccn1 | 45%[activator] | u
O=C1CCSc2c1cccc2C(=O)NCC1CCN(Cc2ccc(Cl)cc2)CC1 | -15% | -11%
Nc1c(-c2nc(-c3ccncc3)no2)nnn1CC(=O)Nc1ccccc1 | 0% | -13%
Cc1cc(C(=O)N2CCN(c3ccccc3F)CC2)c2c(C)nn(-c3ccccc3)c2n1 | 11% | 8%
COc1cc(OC)cc(-c2nnc(Cc3ccccc3Cl)o2)c1 | 0% | 203%[activator]
CCOC(=O)C1CCCN(S(=O)(=O)c2ccc3c(c2)oc(=O)n3C)C1 (centres undefined) | u | -14%
Cc1ccc(NC(=O)C2CCN(c3nn4cc(-c5ccc(C)cc5)nc4s3)CC2)cc1 | 38%[activator] | -10%
CCN(CC)C(=O)c1ccc(-n2nc(C)c(-c3ccc(C)cc3)c2NC(C)=O)cc1 | -4% | -3%
N#Cc1nc(Cc2ccccc2)oc1N1CCCC1 | 165%[activator] | 0%
O=C(C1CCCO1)N1CCN(Cc2coc(-c3ccc(F)cc3)n2)CC1 (centres undefined) | -19% | u
COc1ccccc1OCCCSc1nc(-c2ccc(C(C)(C)C)cc2)nc2cc(=O)[nH]n12 | 9% | -5%
Cc1nc2c(C(=O)N(C)Cc3ccccc3)c[nH]n2c(=O)c1Cc1ccc(Cl)cc1 | u | -17%
CN1CCN(CCOc2ccc(C#N)cc2)CC1 | -16% | -10%
CCc1cccc(C)c1Nc1c(-c2cccs2)nc2nc(C)cc(C)n12 | 2% | -6%
CC(C)CNc1oc(/C=C/c2cccs2)nc1C#N | 169%[activator] | 15%
COCCn1c(-c2ccc(SC)cc2)nc2c1c(=O)[nH]c(=O)n2CC(C)C | 0% | -4%
C=CCOc1ccccc1C1C2=C(CC(C)(C)CC2=O)OC2=C1C(=O)CC(C)(C)C2 | -14% | -8%[1.06 µM]
COc1cc(/C=C(/C#N)c2nc3ccccc3[nH]2)ccc1OC(C)C | 172%[activator] | 20%
CCCNC(=O)CCc1c(C)nc2nc(-c3cc(OC)cc(OC)c3)nn2c1C | 0% | -20%
Cc1nc(NC(=O)CCOc2ccc(Cl)cc2)sc1C | 88%[activator] | -3%
CCOc1ccccc1NS(=O)(=O)c1ccc2c(c1)CC(C)N2C(=O)C1CC1 (centres undefined) | u | 34%[activator]
Cc1nn(-c2ccccc2)c(-n2cccc2)c1C(=O)N1CCN(c2ccccc2)CC1 | 2% | -5%
CCc1ccccc1NC(=O)c1ccc(F)c(S(=O)(=O)N2CCN(c3cccc(Cl)c3)CC2)c1 | -19% | -8%
Cc1ccnc(NC(c2ccccc2F)c2ccc3cccnc3c2O)c1 (centres undefined) | -15% | u
Cc1cc(Cl)ccc1NC(=O)CSc1nc2c(c(=O)[nH]1)CCC2 | 0% | -8%
Cc1cccc2c1-c1sc(C(=O)NCc3ccccc3Cl)cc1CO2 | 0% | 0%
CCOC(=O)C1=C(C(F)(F)F)Nc2ncnn2C1c1ccc(F)cc1 (centres undefined) | 20% | 20%
O=S(=O)(O)c1ccc(O)cc1 | -2%[11.5 µM] | -3%
Cc1oc2cc3oc(=O)c(CC(=O)NCc4ccccc4)c(C)c3cc2c1C | -12% | -1%

4 records picked at random from those above, as already listed:
structure | StopGo FLuc | StopGo RLuc
Cc1cc(Cl)ccc1NC(=O)CSc1nc2c(c(=O)[nH]1)CCC2 | 0% | -8%
COCCn1c(-c2ccc(SC)cc2)nc2c1c(=O)[nH]c(=O)n2CC(C)C | 0% | -4%
Cc1nc(NC(=O)CCOc2ccc(Cl)cc2)sc1C | 88%[activator] | -3%
Cc1nn(-c2ccccc2)c(-n2cccc2)c1C(=O)N1CCN(c2ccccc2)CC1 | 2% | -5%

Next structures.
structure | StopGo FLuc | StopGo RLuc
COC(=O)c1ccccc1OC(=O)COc1c(C)cc(Br)cc1C | 4% | -4%
N#C/C(=C\c1ccc(-c2cccc(C(F)(F)F)c2)o1)c1nc2ccccc2[nH]1 | 0% | -28%
Cc1ccc2cc(C(=O)N(C)C3CCS(=O)(=O)C3)c(C)nc2c1 (centres undefined) | -13% | -15%
CCN(CCCNC(=O)c1cc2c(=O)[nH]c3ccccc3c2s1)c1ccccc1 | -12% | -3%
NC(=O)c1ccc(-c2nnn(CC(=O)N3CCCC3c3ccc4c(c3)OCCO4)n2)cc1 (centres undefined) | 13% | 9%
COc1ccc(CCNC(=O)c2cnn(-c3cccc(C)c3)c2C2CCNCC2)cc1OC | -7% | -16%
CC(C)c1ccc(Nc2c(-c3ccccc3O)nc3cnccn23)cc1 | 10% | 8%
CCCc1nc2c(-c3ccccc3)c(C)[nH]n2c(=O)c1Cl | 18% | 5%
O=C(Nc1ccc(Br)cc1)C(c1ccccc1)C1CCCC1 (centres undefined) | -16% | 13%
